HCMV NEC inh: inhibitors of HCMV UL50-UL53 interaction, biochemical, HTRF; 0.15% of 190,000 active; inhibition, % (test concentration not listed); AID 1918969, 2023; normalized percent inhibition;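 active = both replicates at 50% or more, plus weaker picks with an unusually low signal ratio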;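 note: stock transfer was 100 nL into about 20 µL; 0% = negative control wells and 100% = wells with untagged competitor protein; inactives centre near -12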
Sa growth inh: S. aureus growth inhibition at 42 and 30 °C, primary screen, LtaS inhibitor project, RN4220, two temperatures; OD600, 20 h, 42 °C; stronger effect = lower value; AID 720641, 2013; relative growth, % (no concentration beside the values); 0.53% of 170,000 active;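 active = growth at 42 °C up to 50% and 20 or more points under that at 30 °C, or under 10% at both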;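 note: 300 nL library stock went into each well; scaled to the means of positive and negative controls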
GIV-Gai inh: inhibitors of GIV peptide binding to Galpha-i3, primary screen, biochemical, fluorescence polarization, FITC-GIV GBA peptide, rat Galphai3. Guanine nucleotide-binding protein G(i) subunit alpha-3 (Rattus norvegicus), P08753. 90 min; stronger effect = lower value; scaled: aluminum fluoride 0%, vehicle 100%. percent of control (FP), % (concentration not given with the values). 0.42% of 210,000 active. AID 1224905, 2016;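 active = replicate mean at 85% of control or lower, very high polarization wells dropped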;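 note: wells of about 15 µL received 100 nL stock; the first replicate is given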
Target sequence (P08753 whole entry, looked up): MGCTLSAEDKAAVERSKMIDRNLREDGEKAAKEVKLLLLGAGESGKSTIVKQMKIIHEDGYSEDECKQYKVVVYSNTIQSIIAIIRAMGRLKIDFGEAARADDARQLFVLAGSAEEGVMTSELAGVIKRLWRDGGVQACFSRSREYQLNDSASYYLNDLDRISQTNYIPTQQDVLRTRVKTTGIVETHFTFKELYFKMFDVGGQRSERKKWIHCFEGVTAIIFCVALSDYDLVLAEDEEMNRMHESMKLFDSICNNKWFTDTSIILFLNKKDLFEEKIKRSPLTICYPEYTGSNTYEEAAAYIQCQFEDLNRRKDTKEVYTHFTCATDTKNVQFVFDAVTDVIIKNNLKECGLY
Sa growth inh second temp: further read-out of Sa growth inh, marked with its call; relative growth, %; measured here: growth at 30 °C;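 optical density after 20 h as mean of two plates; 100% = untreated growth and lower means inhibition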
An asterisk follows results filed as active.

For NS(=O)(=O)c1ccc(CCNC(=O)c2c(-n3cccc3)sc3c2CCCC3)cc1 the results were HCMV NEC inh -15, Sa growth inh 115 and Sa growth inh second temp 84.
`CCOC(=O)Cc1csc(CC(N)=O)n1` gave HCMV NEC inh 6, Sa growth inh 102, GIV-Gai inh 107 and Sa growth inh second temp 101.
COc1cccc(NC(=O)CCc2c(C)nc3c4cccnc4nn3c2C)c1 was read as HCMV NEC inh -7, Sa growth inh 106, GIV-Gai inh 105 and Sa growth inh second temp 85.
Screening Nc1ccc(CCC(=O)N2CCCC2)cc1 returned HCMV NEC inh -26, Sa growth inh 96, GIV-Gai inh 102 and Sa growth inh second temp 82.
Cc1nn(-c2ccccc2)c(OC(=O)c2ccc(Br)o2)c1Sc1ccccc1 was read as HCMV NEC inh -5, Sa growth inh 67, GIV-Gai inh 99 and Sa growth inh second temp 46.
Screening Clc1c(-c2nnco2)sc2ccccc12 returned HCMV NEC inh -127, Sa growth inh 107 and Sa growth inh second temp 81.
`COc1cccc2c(=O)c(C(=O)NCc3cccs3)c[nH]c12` gave HCMV NEC inh -11, Sa growth inh 115, GIV-Gai inh 97 and Sa growth inh second temp 87.
For O=C(O)c1cccc(-c2nc3ccccc3[nH]2)c1 the results were HCMV NEC inh 4, Sa growth inh 111 and Sa growth inh second temp 102.
Nc1ccc(S(=O)(=O)NCc2ccncc2)cc1 was read as HCMV NEC inh -5, Sa growth inh 107, GIV-Gai inh 103 and Sa growth inh second temp 91.
`CCOC(=O)Cc1c(C)nc2cc(-c3ccc(C(C)(C)C)cc3)nn2c1C` gave HCMV NEC inh -28, Sa growth inh 95, GIV-Gai inh 110 and Sa growth inh second temp 84.
For CC(C)NC(=O)c1ccc2c(=O)n(Cc3ccco3)c(=S)[nH]c2c1 the results were Sa growth inh 110, GIV-Gai inh 102 and Sa growth inh second temp 84.
Screening Cc1ccc(CCNC(=O)Cn2ncn3c(cc4sccc43)c2=O)cc1 returned HCMV NEC inh 2, Sa growth inh 90, GIV-Gai inh 105 and Sa growth inh second temp 82.
For O=C(O)CN1C(=O)c2cccc3c(Cl)cc(Cl)c1c23 the results were HCMV NEC inh -31, Sa growth inh 98 and Sa growth inh second temp 93.
For CCOc1cc(C(=O)Nc2ccc(C(=O)Nc3cccc(-c4nc5ccccc5o4)c3)cc2)cc(OCC)c1OCC the results were HCMV NEC inh -2 and GIV-Gai inh 109.
COc1ccc(C2CC(c3ccccc3)=NN2C(=O)CSc2nc(N)c(C#N)cc2C#N)cc1 (stereo not drawn) was read as HCMV NEC inh 10, Sa growth inh 90 and Sa growth inh second temp 84.

Of the compounds above, these have a carbonyl joined to an NH by a bond outside any ring:
For NS(=O)(=O)c1ccc(CCNC(=O)c2c(-n3cccc3)sc3c2CCCC3)cc1 the results were HCMV NEC inh -15, Sa growth inh 115 and Sa growth inh second temp 84.
`CCOC(=O)Cc1csc(CC(N)=O)n1` gave HCMV NEC inh 6, Sa growth inh 102, GIV-Gai inh 107 and Sa growth inh second temp 101.
COc1cccc(NC(=O)CCc2c(C)nc3c4cccnc4nn3c2C)c1 was read as HCMV NEC inh -7, Sa growth inh 106, GIV-Gai inh 105 and Sa growth inh second temp 85.
`COc1cccc2c(=O)c(C(=O)NCc3cccs3)c[nH]c12` gave HCMV NEC inh -11, Sa growth inh 115, GIV-Gai inh 97 and Sa growth inh second temp 87.
For CC(C)NC(=O)c1ccc2c(=O)n(Cc3ccco3)c(=S)[nH]c2c1 the results were Sa growth inh 110, GIV-Gai inh 102 and Sa growth inh second temp 84.
Screening Cc1ccc(CCNC(=O)Cn2ncn3c(cc4sccc43)c2=O)cc1 returned HCMV NEC inh 2, Sa growth inh 90, GIV-Gai inh 105 and Sa growth inh second temp 82.
For CCOc1cc(C(=O)Nc2ccc(C(=O)Nc3cccc(-c4nc5ccccc5o4)c3)cc2)cc(OCC)c1OCC the results were HCMV NEC inh -2 and GIV-Gai inh 109.

Other records follow.
Screening Cc1c(-c2nc(-c3ccccc3)no2)nnn1-c1cc(F)ccc1F returned HCMV NEC inh -26 and GIV-Gai inh 100.
`COc1ccc2c(c1)c(CC(=O)OCc1ccccn1)c(C)n2C(=O)c1ccc(Cl)cc1` gave Sa growth inh 111, GIV-Gai inh 104 and Sa growth inh second temp 92.
Screening Cc1cc(C=C2C(=O)OC(C)(C(C)(C)C)OC2=O)c(C)n1-c1ccccc1 (stereo not drawn) returned HCMV NEC inh -12, Sa growth inh 84 and Sa growth inh second temp 89.
Screening Cc1cc(NC(=O)c2ccc3c(Cl)c4c(nc3c2)CCCC4)no1 returned HCMV NEC inh 0, Sa growth inh 114, GIV-Gai inh 101 and Sa growth inh second temp 88.
`Fc1ccc(COc2cn(-c3ccccc3)nn2)cc1` gave HCMV NEC inh 20, Sa growth inh 111 and Sa growth inh second temp 95.
Screening Cc1ccccc1CSc1ncc(Cl)c(C(=O)NCc2ccccc2)n1 returned HCMV NEC inh -3, Sa growth inh 84, GIV-Gai inh 100 and Sa growth inh second temp 94.
Screening COc1cccc(-n2cc(C(=O)N3C(C)CCCC3C)c3ccccc3c2=O)c1 (stereo not drawn) returned Sa growth inh 98, GIV-Gai inh 102 and Sa growth inh second temp 92.
`COc1ccc(-c2noc(-c3ccc(N4CCCCC4C)c([N+](=O)[O-])c3)n2)cc1OC` (stereo not drawn) gave HCMV NEC inh 5, Sa growth inh 94, GIV-Gai inh 102 and Sa growth inh second temp 86.
`COc1ccc(N2CCN(S(=O)(=O)c3ccc(-c4cnc(C5CC5)o4)cc3)CC2)cc1` gave Sa growth inh 123, GIV-Gai inh 100 and Sa growth inh second temp 80.
Screening COc1ccc(C2c3[nH]c4ccc(Cl)cc4c3CCN2C(=O)Nc2cc(OC)ccc2OC)cc1 (stereo not drawn) returned HCMV NEC inh -7 and GIV-Gai inh 103.
For COCCNc1nc2ccc(Cl)cc2nc1-n1nc(C)cc1C the results were HCMV NEC inh -10 and GIV-Gai inh 111.
Screening CC1CCN(c2nc3ncnc(SCC(=O)NC4CCCC4)c3s2)CC1 returned HCMV NEC inh -8 and GIV-Gai inh 101.
Screening O=C(c1ccc(CS(=O)(=O)c2ccccc2)o1)N1CCN(c2ccccc2)CC1 returned HCMV NEC inh -2, Sa growth inh 102, GIV-Gai inh 100 and Sa growth inh second temp 105.
`N#Cc1c(N)nc(SCc2ccccc2)c(C#N)c1C1CCCCC1` gave HCMV NEC inh -2, Sa growth inh 115 and Sa growth inh second temp 96.
For CN(C)c1nc2n(c(=O)c1Cc1ccccc1)CCCS2 the results were HCMV NEC inh -4 and GIV-Gai inh 103.
Screening CC1CN(C(=O)COc2ncnc3c2cnn3-c2ccccc2)CC(C)O1 (stereo not drawn) returned HCMV NEC inh 0, Sa growth inh 103 and Sa growth inh second temp 92.
`Cc1ccccc1-c1noc(-c2nnn(-c3ccccc3C)c2N)n1` gave Sa growth inh 105, GIV-Gai inh 102 and Sa growth inh second temp 101.
CC1CCC(NC(=O)c2ccc3c(c2)N(Cc2cccc(F)c2)C(=O)c2ccccc2S3)CC1 (stereo not drawn) was read as Sa growth inh 105, GIV-Gai inh 110 and Sa growth inh second temp 99.
`FC(F)(F)c1cccc(NCc2cn3ccccc3n2)c1` gave HCMV NEC inh -12, Sa growth inh 105 and Sa growth inh second temp 81.
CC1CS/C(=C(/C(=O)O)C(=O)/C=C/c2cccc(O)c2)S1 (stereo not drawn) was read as HCMV NEC inh -16, Sa growth inh 99 and Sa growth inh second temp 68.
`CCn1c(-c2nonc2NC(C)=O)n[nH]c1=S` gave HCMV NEC inh 2, Sa growth inh 96, GIV-Gai inh 97 and Sa growth inh second temp 93.
Screening O=C(O)c1cccc(OCCN2CCCC2=O)c1 returned HCMV NEC inh -25, Sa growth inh 89, GIV-Gai inh 101 and Sa growth inh second temp 78.
Screening COc1ccc(N2Cc3cccc(C(=O)NCCCN4CCN(c5cccc(Cl)c5)CC4)c3C2=O)cc1 returned HCMV NEC inh -5, Sa growth inh 96, GIV-Gai inh 102 and Sa growth inh second temp 55.
Screening CC(Oc1ccc(Oc2ccccc2)cc1)C(=O)NC1CC1 (stereo not drawn) returned HCMV NEC inh -31, Sa growth inh 102 and Sa growth inh second temp 88.
For C=CCSC1=C(C#N)C(c2ccc(C)cc2)C(C(=O)OC)C(=O)N1 (stereo not drawn) the results were Sa growth inh 83, GIV-Gai inh 105 and Sa growth inh second temp 63.
For CCN(C(=O)Nc1cccc(Cl)c1)c1ccccc1 the results were HCMV NEC inh -3, Sa growth inh 97, GIV-Gai inh 100 and Sa growth inh second temp 90.
CN(C1CCCCC1)S(=O)(=O)c1ccccc1 was read as HCMV NEC inh 5, Sa growth inh 116, GIV-Gai inh 97 and Sa growth inh second temp 93.
`Cc1ccc(C(=O)N2N=C(c3ccc(F)cc3)CC2(O)C(F)(F)F)cc1` (stereo not drawn) gave HCMV NEC inh -11 and GIV-Gai inh 101.
For CCc1ccc(Cn2nnc(C(=O)O)c2C(=O)O)cc1 the results were HCMV NEC inh 4 and GIV-Gai inh 104.
Cn1c(=NC(=O)c2ccc(S(C)(=O)=O)cc2)sc2ccccc21 was read as HCMV NEC inh -46, Sa growth inh 86, GIV-Gai inh 98 and Sa growth inh second temp 80.
Screening Cc1cc2nc(-c3cccc(Br)c3)cc(C(F)(F)F)n2n1 returned HCMV NEC inh -25 and GIV-Gai inh 100.
`Cc1ccccc1CNC(=O)c1ccc(CSc2nc3cccnc3n2Cc2ccccc2)cc1` gave Sa growth inh 147, GIV-Gai inh 108 and Sa growth inh second temp 112.
`CCn1c(O)c(C=NCCCCCc2nc(-c3ccc(C)cc3)no2)c(=O)n(CC)c1=S` gave HCMV NEC inh 12, Sa growth inh 101 and Sa growth inh second temp 98.
`COc1ccc(-n2cc(C(=O)NCc3cccc(OC)c3)c3ccccc3c2=O)cc1` gave Sa growth inh 109, GIV-Gai inh 107 and Sa growth inh second temp 118.
Screening COC(OC)c1ccc(C#N)c(SCc2ccc(Cl)cc2)n1 returned HCMV NEC inh -27, Sa growth inh 118, GIV-Gai inh 99 and Sa growth inh second temp 96.
Screening Clc1ccc(Nc2nnns2)cc1 returned Sa growth inh 76, GIV-Gai inh 100 and Sa growth inh second temp 30.
`c1ccc(Cc2nn[nH]n2)cc1` gave HCMV NEC inh -12 and GIV-Gai inh 98.
O=C(O)CNC(=O)C(c1ccccc1)c1ccccc1 was read as HCMV NEC inh -14, Sa growth inh 98 and Sa growth inh second temp 94.
`C=CCN(CC=C)S(=O)(=O)c1ccc(NC(=O)C2CCCCC2C(=O)O)cc1` (stereo not drawn) gave HCMV NEC inh -6, Sa growth inh 111, GIV-Gai inh 107 and Sa growth inh second temp 101.
For O=C(CC1N=C2c3ccccc3N=C(SCc3ccc(Cl)cc3)N2C1=O)NCc1cccs1 (stereo not drawn) the results were Sa growth inh 89, GIV-Gai inh 102 and Sa growth inh second temp 93.
Screening Cc1c(C(=O)N2CCCCC2C)sc2ncnc(N3CCN(c4ccccn4)CC3)c12 (stereo not drawn) returned HCMV NEC inh -2 and GIV-Gai inh 106.
O=C1CN(C(=O)CCC(=O)c2ccc(F)cc2)c2ccccc2N1 was read as HCMV NEC inh -8, Sa growth inh 100 and Sa growth inh second temp 44.
`CCCc1ccc(OC(C)C(=O)Nc2sc3c(c2C(=O)OC)CCCCC3)cc1` (stereo not drawn) gave HCMV NEC inh -15, Sa growth inh 104, GIV-Gai inh 104 and Sa growth inh second temp 88.
O=C(c1cc2cc(Cl)cc(Cl)c2oc1=O)N1CCCCC1 was read as HCMV NEC inh -19, Sa growth inh 111, GIV-Gai inh 112 and Sa growth inh second temp 96.
Screening Cc1nc(C2COc3ccccc3O2)ncc1S(=O)(=O)c1ccc(Cl)cc1 (stereo not drawn) returned HCMV NEC inh 22, Sa growth inh 97, GIV-Gai inh 102 and Sa growth inh second temp 99.
For CC(=O)Nc1ccc(S(=O)(=O)NNC(=S)NCc2ccco2)cc1 the results were HCMV NEC inh -2, Sa growth inh 93, GIV-Gai inh 105 and Sa growth inh second temp 91.
`CN1c2ccc(Cl)cc2C(=O)NC1c1ccc(C#N)cc1` (stereo not drawn) gave HCMV NEC inh -13, Sa growth inh 89, GIV-Gai inh 97 and Sa growth inh second temp 79.
`CCCOC(=O)COc1ccc2c(=O)c(Oc3ccc(OC)cc3)c(C(F)(F)F)oc2c1` gave HCMV NEC inh -12 and GIV-Gai inh 103.
`O=C(NC1CCCCC1)c1ccc(CSc2nc3ccncc3n2Cc2ccccc2)cc1` gave HCMV NEC inh -18, Sa growth inh 104, GIV-Gai inh 101 and Sa growth inh second temp 90.
`Cc1ccc(C(=O)C2CCN(C(=O)Cc3ccccc3)CC2)cc1` gave HCMV NEC inh -10, Sa growth inh 94, GIV-Gai inh 103 and Sa growth inh second temp 72.
CNC(=O)c1ccc(CN2C(=O)C(C)=C(c3ccc(C)c(C)c3)S2(=O)=O)cc1 was read as HCMV NEC inh -16 and GIV-Gai inh 105.
For CC(NC(=O)c1ncn[nH]1)c1ccc(-c2ccccc2)cc1 (stereo not drawn) the results were HCMV NEC inh 0, Sa growth inh 99 and Sa growth inh second temp 78.
`O=C(Cn1cc2c(n1)CCCCC2)N1CCCCC1` gave Sa growth inh 103, GIV-Gai inh 101 and Sa growth inh second temp 85.
`COc1ccc(OC)c(CNC(=O)c2cc(C)nc3c2c(=O)n(C)c(=O)n3C)c1` gave HCMV NEC inh 0 and GIV-Gai inh 105.

Screens: PubChem, ICCB-Longwood Screening Facility, Harvard Medical School
